TRPV1 potentiator = enhances activation of the human vanilloid receptor TRPV1 | TRPV1-expressing cells, Fluo-8 calcium influx, capsaicin EC20 potentiation; host cell line not named in the record; control for the full effect not named in the record | 0.02% of 320,000 active | potentiation, % at 8.33 µM | AID 540277 | Q8NER1; active means potentiation above 80%; inconclusive means 30% to 80%; inactive means below 30%; further: 0% is about no effect
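Fluo-8 calcium influx in TRPV1-expressing cells, kinetic read (ex 480/em 520 nm). Compound added and read 3 min for agonist activity, followed by capsaicin at EC20 final and 2 min further read for enhancement.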
ClpP mod = qHTS Assay for Activators of ClpP; ATP-dependent Clp protease proteolytic subunit (Bacillus subtilis (strain 168)), P80244; 1.9% of 340,000 active; purified B. subtilis ClpP, FRET peptide cleavage, 20 min; Potency, µM (top dose mostly 57.5 µM), for inactives: top-dose activity change, negative = active; active = well fitted falling curve with a large enough effect; inconclusive = small, poorly fitted or top-dose-only effect; inactive = no such curve, though single readings can be large or run the other way; further: potency means the concentration at half of the fitted maximal effect; the source files actives as falling curves though it sought activators and does not explain the sign; nearly all actives have a fitted effect of over 65% in size; many hits overshoot -100%
Target sequence (P80244 whole entry, looked up): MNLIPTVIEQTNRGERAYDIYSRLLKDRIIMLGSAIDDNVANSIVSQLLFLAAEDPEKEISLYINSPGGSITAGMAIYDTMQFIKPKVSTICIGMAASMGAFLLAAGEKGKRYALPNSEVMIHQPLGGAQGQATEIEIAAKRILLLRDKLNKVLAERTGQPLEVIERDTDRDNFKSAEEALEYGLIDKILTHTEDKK
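Purified B. subtilis ClpP, 10 microg/mL final in Tris/HCl pH8 with KCl, BSA, glycerol and Tween-20, cleaved an Abz/nitrotyrosine-quenched decapeptide. Fluorescence (ex 320, em 430) was read at 0 and 20 min at room temperature. Delta was normalized to 5.8 microM ADEP and DMSO/no-enzyme controls.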
gsp agonist = agonists of gsp mutant (McCune-Albright syndrome); 0.13% of 340,000 active; Potency, µM (highest dose often 76.9 µM), for the others: at the top dose activation (cAMP increase), hits mostly activators; gsp mutant cells, cAMP HTRF, 30 min; control for the full effect not named in the record; active = well fitted activation curve with a large enough effect; inconclusive = small, poorly fitted or top-dose-only effect, or another doubt; inactive = no such curve, though single readings can be large or run the other way; cell line not stated here;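 further: phosphodiesterase inhibitor Ro 20-1724 added with compounds to block cAMP breakdown; potency means the concentration at half of the fitted maximal effect; nearly all actives have a fitted effect of over 60% in size; about a fifth of the inactives were tested at one dose only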
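Cells stably selected in G418 were plated at 2000/well, grown 16-24 hr, then given compounds in DMSO with the PDE inhibitor […] (300 uM solution added) for 30 min at 37C; cAMP was read by HTRF.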
Menin-MLL FL inh = displaces fluorescein MLL peptide from human menin; Fluorescence polarization, fluorescein-MLL peptide displacement from menin; FP activity change, % at 61.4 µM; 290,000 tested, under 10 active; inconclusive = falling polarisation curve, or a change in total fluorescence; inactive = total fluorescence flat and polarisation flat or rising; no compound was filed as active; the % refers to the polarisation; negative = inhibition;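 further: % of control where 0% means no effect; inhibitors lower the polarisation; unlabelled MLL peptide was the positive control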
gsp antagonist = antagonists of gsp mutant (McCune-Albright syndrome) | 0.4% of 340,000 active | gsp-mutant cells, cAMP HTRF, 30 min; control for the full effect not named in the record | Potency, µM (highest dose often 76.9 µM), inactives show top-dose activity change, negative = inhibition, most hits filed as inhibitors; active = falling curve of any shape with a large fitted effect; inconclusive = falling curve, mostly with a smaller effect; inactive = flat or rising curve; cell line not stated here;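 further: intracellular cAMP measured with PDE inhibitor Ro 20-1724 present during compound exposure; potency means the concentration at half of the fitted maximal effect; on the % scale 0 is the no-effect control and ±100 the full control effect; nearly all actives have a fitted effect of over 65% in size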
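HTRF cAMP measurement after 30 min RT detection following 30 min, 37C compound treatment alongside […] (added as 300 uM solution) in G418-selected cells seeded at 2000/well and grown 16–24 h.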
TRPML1 blocker = blocks the human TRPML1 channel | 0.02% of 390,000 active | AID 624415 | Q9GZU1 | TRPML1-inducible cells, Ca2+ dye fluorescence, FDSS; active compounds read low; inhibition of EC80 agonist-evoked calcium signal | activity change, negative = inhibition, % (concentration not given with the values); in the data active means activity change below about -50%; inconclusive means about -30% to -50%; inactive means above about -30%;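 further: stimulus is agonist 54-4 at its EC80 concentration; on the % scale 0 is the no-effect control and ±100 the full control effect; the text of the record puts the active cut at -80%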
Target sequence (Q9GZU1 whole entry, looked up): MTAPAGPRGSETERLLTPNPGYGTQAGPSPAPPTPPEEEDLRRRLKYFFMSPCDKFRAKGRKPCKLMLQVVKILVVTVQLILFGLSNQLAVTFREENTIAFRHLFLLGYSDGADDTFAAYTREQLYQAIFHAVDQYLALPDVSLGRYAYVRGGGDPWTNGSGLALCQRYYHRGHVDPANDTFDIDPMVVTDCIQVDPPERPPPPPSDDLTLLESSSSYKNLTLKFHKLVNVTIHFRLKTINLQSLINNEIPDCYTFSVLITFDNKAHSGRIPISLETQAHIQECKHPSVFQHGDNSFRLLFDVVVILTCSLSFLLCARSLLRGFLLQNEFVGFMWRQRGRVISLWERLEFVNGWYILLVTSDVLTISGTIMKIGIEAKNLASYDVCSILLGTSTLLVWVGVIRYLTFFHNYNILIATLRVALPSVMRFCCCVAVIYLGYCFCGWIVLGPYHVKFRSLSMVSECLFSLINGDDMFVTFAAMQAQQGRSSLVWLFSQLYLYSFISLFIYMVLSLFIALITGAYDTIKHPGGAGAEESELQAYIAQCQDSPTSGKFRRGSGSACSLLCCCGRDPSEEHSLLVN
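Calcium fluorescence in TRPML1-DL cells induced overnight with Tet: a 110 s read after compound pin addition, then a 110 s antagonist read after challenge with 54-4 at 4 uM final (EC80).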
Sfp PPTase inh = blocks B. subtilis Sfp PPTase activity. Biochemical Sfp PPTase activity, qHTS. Potency, µM, for inactives: max response, negative = inhibition, most hits filed as inhibitors. 3.5% of 310,000 active. AID 1490; active means well fitted inhibition curve with a large enough effect; inconclusive means small, poorly fitted or top-dose-only effect, or another doubt; inactive means no such curve, though single readings can be large or run the other way;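 further: the enzyme is Sfp with the accession as filed and its product quenches rhodamine fluorescence; potency means the concentration at half of the fitted maximal effect; 0% = enzyme reaction without inhibitor and -100% = no enzyme wells; top concentration of the series not given in the record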
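Compounds were incubated with enzyme (final 15 nM) for 15 min at room temperature before substrate addition started the reaction. Fluorescence at 525 nm excitation, 598 nm emission was recorded immediately and after 30 minutes.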
An asterisk follows results filed as active; ? = inconclusive; / = not tested or not shown; & = joins results of further samples; [ ] = remark or other dose. This is a random part of the collection. Share with any hit: about 4.9%.

Under each structure – TRPV1 potentiator	ClpP mod	gsp agonist	Menin-MLL FL inh	gsp antagonist	TRPML1 blocker	Sfp PPTase inh
> Cn1cccc1C(=O)NCC1CCCCC1
 : -1	-3.3%	-2%	-0.5	7%	-7	3%
> Cc1nn(C)c(C)c1NC(=O)COc1ccc(Cl)cc1Br
 : -10	?	-31%[inhibitor]	/	8%	4	/
> CC(=O)Oc1cccc(N2C(=O)c3ccccc3C2=O)c1
 : 16	-2.7%	-5%	1.8	17%	2	13%
> CC1CN(C(=S)Nc2ccccc2C(F)(F)F)CC(C)O1 (stereo not given)
 : 7	-4.4%	15%[15.4 µM]	4.0	10%	13	15%
> Cc1ccc(C2=[N+]([O-])C3(CCCCC/C3=N\O)N(O)C2(C)C)o1 (stereo not given)
 : -21	-0.5%	4%	0.1	5%	-22	?
> N=c1c2c3c(sc2ncn1Nc1ccccc1)CCC3
 : -2	-0.1%	11%	-2.7	5%	-24	-9%
> CCOC(=O)NC(=O)CSc1nnc(C2CC2)n1Cc1ccco1
 : -1	/	14%	0.0	7%	-1	-3%
> O=C(CSc1ncccc1-c1nc2ccccc2[nH]1)NC1CC1
 : 3	?	-1%	0.8	10%	26	-6%
> COc1ccc(OCC(=O)Nc2ccc3c(c2)nc(CCN2CCN(c4ccccn4)CC2)n3C)cc1
 : /	-0.6%	-10%	/	/	26	/
> COc1ccc(C2C3C(=O)N(N(C)c4ncc(C(F)(F)F)cc4Cl)C(=O)C3ON2C)cc1 (stereo not given)
 : -2	/	30%	1.4	-12%	-25	-12%
> COCCN(C(=S)Nc1cccc(OC)c1)C1CCN(C(C)=O)CC1
 : -5	-1.6%	10%	3.1	4%	-25	1%
> Cc1ccc(NC(=S)NN(C)c2cc(C)nc(C)n2)cc1
 : 28	-0.9%	-26%	1.9	-7%	15	-6%
> COc1ccc(C(=O)NCCc2nnc3ccc(SCC(=O)NCc4ccccc4)nn23)cc1
 : -6	-15%	?	/	4%	-4	-2%
> O=C(C1CCC(=O)N1Cc1ccccc1Cl)N1CCN(c2cccc(Cl)c2)CC1 (stereo not given)
 : 1	2.1%	2%	-0.3	2%	1	6%
> Cn1c(=O)c(-c2ccccc2[N+](=O)[O-])c(Cl)c2ccccc21
 : 12	-0.2%	6%[15.4 µM]	0.4	0%	8	-3%
> Cn1ccnc1SCC(=O)Nc1cccc2ccccc12
 : 11	0.2%	21%	0.2	1%	-12	2%
> COc1ccc(NC(=O)CN(C)C(=O)Cc2c[nH]c3ccccc23)cc1
 : 5	-2.8%	-36%[inhibitor]	/	3%	-4	/
> COc1cccc(CC2(CO)CCCN(Cc3cn[nH]c3-c3ccccc3)C2)c1 (stereo not given)
 : -5	/	-30%	-0.7	5%	-13	-7%
> CC(C(=O)NCc1ccccc1)N1C(=O)CN(C)C(=O)c2ccccc21 (stereo not given)
 : -9	-4.5%	0%	2.7	5%	-10	5%
> CN(c1nc(-c2ccc(Br)cc2)cs1)C1CCS(=O)(=O)C1 (stereo not given)
 : 2	-1.9%	-7%	-6.9	?	4	-20%
> O=C(NC1CCCC1)C1C2C=CC3(CN(Cc4cccs4)C(=O)C13)O2 (stereo not given)
 : 1	0.5%	?	-1.8	12%	-3	6%
> O=C1CC(c2ccccc2Cl)C2=C(COC2=O)N1 (stereo not given)
 : 23	0.4%	0%	0.3	16%	-14	-2%
> COc1cc(C)c(Br)cc1S(=O)(=O)NCCN1CCOCC1
 : 4	/	-3%	0.1	2%	3	14%
> CCCCn1c(N)c(N(CCC(C)C)C(=O)COC(=O)c2sccc2C)c(=O)[nH]c1=O
 : 3	-0.6%	10%	/	4%	-9	/
> Oc1ccc(C[C@@H]2CNCCN2CCc2cccc(F)c2)cc1
 : -11	-1.6%	/	/	5%	48	/
> CCc1ccc(NC(=S)N2CCN(S(=O)(=O)c3ccccc3)CC2)cc1
 : -4	0.1%	-28%	/	-2%	-15	14%
> Cc1ccc(C(=O)NCCN2CCN(C(=O)c3ccc(C)c(C)c3)CC2)cc1C
 : 5	-0.1%	-1%	0.3	-1%	-6	7%
> OCCc1c[nH]c2ccccc12
 : 1	-9.5%	/	-0.1	11%	/	21%
> O=C(c1ccc(COc2c(F)c(F)cc(F)c2F)o1)N1CCN(c2ccccc2)CC1
 : -7	-1.7%	-20%	0.9	14%	-3	-7%
> N=C(N)c1ccc(OCCCCCOc2ccc(C(=N)N)cc2)cc1
 : 7	0.0%	/	0.4	-4%	-3	11%&10%&14%&24%
> O=C(O)CCn1c(O)c(C=C2N=c3ccccc3=N2)sc1=S
 : 12	1.1%	-1%	7.2	-5%	7	-21%
> CCOC(=O)CNC(=S)SC
 : 1	/	5%[15.4 µM]	2.5	-2%	-8	10%
> O=C(N/N=C/c1cccc(O)c1)c1cc(-c2ccc3c(c2)OCO3)n[nH]1
 : 4	2.4%	-42%	4.0	-34%	41	-6%
> CN(C)CCCN1C(=O)C(=O)/C(=C(/O)c2ccc3c(c2)OCCO3)C1c1ccco1 (stereo not given)
 : 1	/	/	0.2	/	/	8%
> Cn1cccc1CC(=O)NNC(=S)Nc1ccc(F)cc1
 : ?	/	-7%	6.4	8%	5	8%
> CC(C)C[C@@H](CN=[N+]=[N-])N1CCN(Cc2ccccc2)CCC1=O
 : -11	-0.9%&0.6%	9%	-5.3	14%	-3	3%
> COc1ccc(C(=O)O/N=C(\C)c2nccs2)cc1
 : 11	/	-26%[15.4 µM]	1.9	8%	3	2%
> CCOC(=O)c1sc(=NC(=O)c2ccc(S(=O)(=O)N(C)c3ccccc3)cc2)n(C)c1C
 : 7	?	6%	-1.0	-4%	-3	23%
> COc1ccc(Nc2ncc(C(=O)N3CCC(C(N)=O)CC3)c3ccccc23)cc1
 : -3	-0.6%	-6%	1.1	4%	5	11%
> COc1cc(C2SCC(=O)N2Cc2ccccc2)ccc1O (stereo not given)
 : 6	0.8%	-43%[inhibitor]	-1.0	3%	-10	9%
> CCOC(=O)c1c(-c2ccc(OC)cc2)oc2ccc(O)cc12
 : -15	-1.1%	-5%[15.4 µM]	-5.4	-15%	36	-11%
> O=C(c1ccc(-n2cnnn2)cc1)N(C1CCCCC1)C1CCCCC1
 : 6	/	-8%[15.4 µM]	-3.4	0%	7	17%
> Cc1c(S(=O)(=O)NCCc2ccccc2)c(=O)n(C)c(=O)n1C
 : 11	/	6%[15.4 µM]	4.4	4%	5	4%
> CCc1c(C)nc2[nH]nc(-c3ccccc3)n2c1=O
 : -2	?	-34%	3.1	?	-8	-5%
> O=C(COC(=O)C12CC3CC(CC(O)(C3)C1)C2)NC(=O)NCc1ccco1
 : -2	-3.9%	2%	3.4	-2%[15.4 µM]	-1	14%
> CS(=O)(=O)Nc1ccccc1C(=O)N1CCOCC1
 : 6	-2.6%	20%	1.4	9%	9	19%
> NC(=O)c1ccccc1NS(=O)(=O)Cc1ccccc1
 : -12	7.9µM*	-32%[inhibitor]	3.8	13%	19	-22%
> CCCc1nc2ccccc2c(C(=O)O)c1CC
 : -6	-2.7%	-5%[15.4 µM]	-2.5	2%	10	4%
> CSc1ncccc1C(=O)OCC(=O)NCc1ccccc1
 : -10	0.7%	6%	/	-5%	-13	/
> O=C(c1cc(COc2ccc(F)cc2Cl)on1)N1CC[C@@H]2CCCC[C@H]2C1
 : -10	-0.4%	6%	/	-27%	17	-13%
> CCN1C(=O)/C(=C/c2c(C)nn(C)c2C)SC1=S
 : 5	0.4%	-30%	?	-8%	-2	?
> COc1ccccc1NC(=O)CN1CCN(CC(=O)Nc2ccc(C)c(F)c2)CC1
 : -1	/	-75%[inhibitor]	4.2	-7%	11	-5%
> Cc1ccccc1OCCn1c(=S)[nH]c2c(N)ncnc21
 : 6	-1.5%	21%	6.4	-5%	19	-29%
> CN(C1CCCCC1)S(=O)(=O)c1cc2c(cc1Cl)NC(=O)CO2
 : 27	-1.0%	-15%	/	-1%	13	2%
> Cc1nc(N2CCN(Cc3ccccc3)CC2)nc2c1C(=O)CCC2
 : -3	?	-54%[inhibitor]	4.4	?	29	16%
> Cc1ccc(OCCN2C(=O)CSC2=O)cc1
 : 1	-1.0%	11%	0.7	6%	18	2%
> CCOC(=O)c1cc(-c2ccccc2)sc1NC(=O)C(C)N1C(=O)c2ccccc2C1=O (stereo not given)
 : -1	/	-13%[15.4 µM]	4.0	-12%	15	13%
> Cc1cc(C)c(S(=O)(=O)NCc2cn3c(C)csc3n2)c(C)c1
 : 4	-0.1%	-33%[inhibitor]	5.3	-21%	7	3%
> c1ccc(CCNc2ccccn2)nc1
 : /	-8.3%	12%	/	-11%	3	/
> COc1ccccc1CNc1ncnc2sccc12
 : -2	/	?	-11	-13%	0	9%

Additional results follow.
Under each structure – TRPV1 potentiator	ClpP mod	gsp agonist	Menin-MLL FL inh	gsp antagonist	TRPML1 blocker	Sfp PPTase inh
> CN(CC(=O)Nc1cc(S(=O)(=O)N2CCCC2)ccc1Cl)Cc1nc2ccccc2c(=O)[nH]1
 : /	-1.2%	53%	/	?	-20	/
> CCn1c(CCC(=O)O)nc2cc(S(=O)(=O)N3CCOCC3)ccc21
 : /	0.7%	5%[15.4 µM]	/	15%	1	/
> COc1cc(/C=N/n2c(-c3cc(C)[nH]n3)n[nH]c2=S)ccc1O
 : 1	/	11%[15.4 µM]	1.9	4%	0	50µM*
> CC(C)(C)c1cc[n+](-c2[nH]c(=O)sc2/C=N/NC(=O)c2ccccc2[O-])cc1
 : -8	/	-8%[15.4 µM]	?	-1%	-13	-1%
> c1ccc(-c2cc3ccccc3cn2)cc1
 : /	3.5%	/	/	-14%	0	/
> CCN(CC)S(=O)(=O)c1ccc(C(=O)Nc2nnc(NC(=S)Nc3ccccc3)s2)cc1
 : 2	/	-6%[15.4 µM]	0.6	-5%	-1	-10%
> CCOc1ccc2nc(NS(=O)(=O)c3cccs3)sc2c1
 : 1	-0.4%	-1%[15.4 µM]	4.6	-12%	21	20%
> O=c1[nH]cncc1OCc1ccccc1
 : /	3.3%	-1%	/	9%	-9	/
> Cc1cccc(C(=O)NCC(=O)N2CCCCCCC2)c1
 : -7	0.7%	2%	/	7%	-8	/
> C=CCOc1ccc(C(=O)N(Cc2ccc(N(C)C)cc2)C2CCS(=O)(=O)C2)cc1 (stereo not given)
 : 7	1.5%	0%	4.3	-11%	4	-7%
